HPGD inh = blocks human HPGD enzyme activity. purified HPGD, NADH fluorescence kinetic, PGE2 substrate. Potency, µM, without a hit: at the highest dose activity change, negative = inhibition, usual class: inhibitors. P15428. AID 894. actives 4.3% (n = 150,000); active = well fitted inhibition curve with a large enough effect (not every such curve was filed as active); inconclusive = small, poorly fitted or top-dose-only effect, or another doubt; inactive = no such curve, though single readings can be large or run the other way;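 note: top concentration of the series not given in the record; plate controls included wells without enzyme; inactives centre near -10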
Target sequence (P15428 whole entry, looked up): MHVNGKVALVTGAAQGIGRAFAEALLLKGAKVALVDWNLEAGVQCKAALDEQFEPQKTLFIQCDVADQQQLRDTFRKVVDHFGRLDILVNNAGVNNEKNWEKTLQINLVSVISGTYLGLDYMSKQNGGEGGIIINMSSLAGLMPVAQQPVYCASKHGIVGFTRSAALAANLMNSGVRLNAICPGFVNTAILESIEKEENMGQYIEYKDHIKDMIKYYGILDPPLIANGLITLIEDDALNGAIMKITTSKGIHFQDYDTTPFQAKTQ
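NADH formation kinetics: reaction with 30 uM PGE2 and 1 mM NAD+ (final), 20 nM enzyme, Tris-HCl pH 8 with Tween 20, after 15 min compound preincubation at room temperature. Fluorescence change, last versus first of five reads.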
* = called active by the depositor; ? = inconclusive; & = joins results of further samples; [ ] = remark or other dose. % is set by controls: 0 for no effect and ±100 for the full control effect; potency is the fitted concentration of half-maximal effect. This is a subset, so the mix of outcomes need not match the whole.

SMILES	HPGD inh
CC(=O)NC(C)c1nc2ccccc2n1C(C)C (stereo not given)	-15%
CCOC(=O)C1=C(O)c2ccccc2C(=O)/C1=C\c1ccc(CC)cc1	0.89µM*
Cc1ccc(CN2CCc3c(OCc4ccc(F)cc4)cccc3C2=O)cc1	-13%
CC(=O)c1c(C)oc2c1C(=O)c1ccccc1C2=O	-1%
COC(=O)c1ccccc1NC(NC(=O)c1ccco1)C(=O)c1ccc(C)cc1 (stereo not given)	-15%
CCn1c(CCNC(=O)c2ccc(Cl)cc2)nnc1SCC(=O)NC1CCCC1	-18%
CCC(=O)c1ccc(OCC(O)Cn2cnc3ccccc32)cc1 (stereo not given)	-13%
Cc1ccc(S(=O)(=O)N/N=C\c2ccc(Cl)c([N+](=O)[O-])c2)cc1	-15%
N#Cc1ccc(NC(=O)COC(=O)CCc2ccc(S(=O)(=O)N3CCCCC3)cc2)cc1	-13%
CCOc1cc(/C=N/NC(N)=O)ccc1OC(=O)c1ccc(C)cc1	-1%
CCOC(=O)c1[nH]c(=O)[nH]c1CSc1nc(C)cc(C)n1	-12%
O=c1oc2ccccc2c(Nc2ccc(O)cc2)c1[N+](=O)[O-]	-15%
CC(C)(C)n1nnnc1CN1C2CCC1CC(NC(=O)Nc1ccccc1)C2 (stereo not given)	-12%
COc1ccc(OC)c(NS(=O)(=O)c2ccc(SC)cc2)c1	-1%
CCOc1ccc(C(=O)NC(=S)Nc2ccc(NC(=O)C(C)C)cc2)cc1[N+](=O)[O-]	-4%
CC(C)Oc1ccc(C(CC(=O)NCc2ccco2)c2ccccc2)cc1 (stereo not given)	11µM*
Cc1noc(C)c1C(=O)N1CCC2(CC1)CN(Cc1cc(C(F)(F)F)cc(C(F)(F)F)c1)C2	1%
C[C@@]1(CO)[C@H](O)CC[C@]2(C)[C@@H]1CC[C@H]1C[C@H]3C[C@]12CC[C@]3(O)COC(=O)CN	-8%
O=C1c2ccccc2C(=O)N1c1ccc(Cc2ccc(N3C(=O)c4ccccc4C3=O)cc2)cc1	2%
O=C1CC(c2ccco2)CC(O)=C1C=Nc1cc(Cl)ccc1Cl (stereo not given)	-19%
Cc1ccc(C(=O)Nc2ncnc3sc4c(c23)CCCCC4)cc1	-6%
CN(C)Cc1cc(Cl)c(O)c(CN(C)C)c1	-5%
CCn1cc(Br)c(C(=O)Nc2cccc(SC)c2)n1	-9%
CN1CC(=O)N(C)c2nc(Br)n(C)c2C1=O	-13%
Cc1cccc(C(=O)Nc2ccc(CC(=O)O)cc2)c1	2%

Of the compounds above, these have an aryl thioether with sulfur outside any ring.
SMILES	HPGD inh
CCn1c(CCNC(=O)c2ccc(Cl)cc2)nnc1SCC(=O)NC1CCCC1	-18%
CCOC(=O)c1[nH]c(=O)[nH]c1CSc1nc(C)cc(C)n1	-12%
COc1ccc(OC)c(NS(=O)(=O)c2ccc(SC)cc2)c1	-1%
CCn1cc(Br)c(C(=O)Nc2cccc(SC)c2)n1	-9%

The results go on.
SMILES	HPGD inh
Cc1ccc(NC(=O)CSC2=NCCN2)cc1	5%
COc1cc(-c2nc(-c3cccnc3)no2)cc(OC)c1OC	-7%
COc1ccc(Oc2coc3cc(OC(=O)c4cccs4)ccc3c2=O)cc1	-18%
Cc1c(C(=O)Nc2ccccc2N2CCOCC2)sc2nc3n(c(=O)c12)CCC3	-27%
COc1ccc(-c2nc(N3CCCC3)[nH]c(=O)c2C#N)cc1	-21%
O=C(COc1cccnc1[N+](=O)[O-])Nc1cccc(S(=O)(=O)N2CCCCC2)c1	-25%
COc1cc2c(cc1OC)Cc1cc(OC)c(OC)cc1Cc1cc(OC)c(OC)cc1C2	-1%
Nc1nonc1-c1noc(CCCN2C(=O)c3ccccc3C2=O)n1	-7%
CC(C)c1ccc(NC(=O)NC2CCN(CC(=O)Nc3cccc4ccccc34)CC2)cc1	-6%
COc1ccc2nc3oc(C(=O)N4CCN(c5cccc(Cl)c5)CC4)cc3cc2c1	176%[activator]
Cc1ccc(S(=O)(=O)N(CCO)Cc2cc3ccc(C)c(C)c3[nH]c2=O)cc1	20%
CCOC(=O)Cc1csc(NS(C)(=O)=O)n1	-8%
O=C(NCCO)C(=O)NCC1OCCCN1S(=O)(=O)c1cccs1 (stereo not given)	-4%
CCc1ccc(C2C3=C(CC(C)(C)CC3=O)Nc3c2c(=O)[nH]c2nc(C)nn32)cc1 (stereo not given)	?
COc1ccc(-c2cc(C(F)(F)F)nc(NCc3cccs3)n2)cc1	?
CCCCCCCCCCCC(=O)N/N=C/c1ccco1	-1%
CCOc1ccc(CN2CCN(c3cc(C)nc4c5c(C)cc(C)nc5nn34)CC2)cc1	?
COc1ccc(-c2nc(CSCC(=O)N3CCN(c4cccc(C)c4)C(C)C3)c(C)o2)cc1OC (stereo not given)	?
CCCn1c(SCC(=O)Nc2c(CC)cccc2CC)nnc1C(C)C	-2%
CCCCc1ccc(Nc2nc(CCC)cc(=O)[nH]2)cc1	?
Cc1cccc(Nc2nnc(SCC3CCCCO3)s2)c1C (stereo not given)	?
COC(=O)c1c(C)[nH]c(C)c1-c1ccccc1Cl	-22%
CCOc1ccc(N(C(C)C(=O)Nc2ccc(OC)cc2)S(C)(=O)=O)cc1 (stereo not given)	-15%
CNc1cccccc1=S	28µM*
Cc1cc(C)c(C(=O)CSc2nnc(-c3cccnc3)n2C)c(C)c1	0%

HPGD inh: what is marked active above
SMILES	HPGD inh
CCOC(=O)C1=C(O)c2ccccc2C(=O)/C1=C\c1ccc(CC)cc1	0.89µM*
CC(C)Oc1ccc(C(CC(=O)NCc2ccco2)c2ccccc2)cc1 (stereo not given)	11µM*
CNc1cccccc1=S	28µM*

Continuation:
SMILES	HPGD inh
Clc1ccc(OCCSc2nnnn2C2CCCCC2)cc1	-12%
CC(=O)C1=C(O)C(=O)N(CC#N)C1c1cccs1 (stereo not given)	-13%
Cn1c(SCC(=O)c2ccccc2)nnc1-c1cccnc1	-11%
CC(=NCc1ccco1)C1=C(O)c2ccccc2C1=O	-2%
O=c1[nH]c2ccccc2cc1CN(c1ccccc1)S(=O)(=O)c1ccccc1	-18%
O=c1c(-c2cccs2)nc2cnc(Oc3ccccc3)nc2n1-c1ccccc1	-19%
O=C(CN1CCOc2ccccc21)NCc1ccc(Cl)cc1	-16%
c1csc(-c2cnc3ccccc3n2)c1	?
Cc1cccc(N2CCN(C(=S)c3ccc([N+](=O)[O-])cc3)CC2)c1	7.9µM*
CC1(C)NC(=O)N(CCOCCOc2cccc(Oc3ccccc3)c2)C1=O	-1%
CCN(CC)S(=O)(=O)c1cc(NC(=O)COC(=O)CCc2nc3ccccc3s2)ccc1C	-8%
CCN1C(=O)CC(N2CCC(C(=O)OC)CC2)C1=O (stereo not given)	-10%
CC(C)(C)C(=O)NCCCc1nc2ccccc2n1CCCOc1ccc(Cl)cc1	-14%
COc1cc(Cl)c(C)cc1NC(=O)CSc1cc(Cl)ccc1Cl	-9%
COc1ccc(NC(=O)C2CCCN(S(=O)(=O)c3ccc4c(c3)oc(=O)n4C)C2)cc1OC (stereo not given)	-14%
C=CCn1cc(C(=O)NCCOC)c(=O)c2cc(S(=O)(=O)N(CC)CC)ccc21	-14%
OC(COc1c(F)cc(Br)cc1F)CN1CCN(c2ccc(F)cc2)CC1 (stereo not given)	-13%
CCN1CCN(c2nc(-c3ccncc3)nc3ccccc23)CC1	-13%
COc1ccc(/C=N/NC(=O)CSc2nnc(CCCc3ccc(OC)c(C)c3)o2)cc1	-29%
COC(=O)CCc1c(C)[nH]c(C(=O)OCc2ccccc2)c1C	-2%&-17%
COc1ccc(O)c(C(=O)c2cc(C#N)c(=O)n(-c3c(C)n(C)n(-c4ccccc4)c3=O)c2)c1	-20%
c1ccc(-c2nc(-c3ccco3)n3ccccc23)cc1	?
Cc1ccc(C)c(N2CCN(c3ccc(N4C(=O)COCC4=O)cc3[N+](=O)[O-])CC2)c1	-8%
CN(Cc1ccccc1)c1ncnc2c1cnn2-c1ccccc1	-22%
S=c1[nH]c2ccccc2s1	25µM*

Following part:
SMILES	HPGD inh
Cc1ccnc(SCC(=O)Nc2c(C)n(C)n(-c3ccccc3)c2=O)n1	-6%
CCOC(=O)c1[nH]c2ccc(OC)cc2c1NC(=O)c1cccc(OC)c1	-11%
O=C(CN1CCN(C2CCCCC2)CC1)Nc1ccccc1-c1ccccc1	0%
CC(=O)c1ccc(NC(=O)CCn2c(=O)oc3ccccc32)cc1	-16%
COc1cc(CCN2C(=O)N[C@@H](c3cccc(C(F)(F)F)c3)C(C(C)=O)=C2C)cc(OC)c1OC	-4%&-3%
CCCc1cc(=O)[nH]c(SCC(=O)NCCCC(=O)OCC)n1	-25%
COc1ccc(S(=O)(=O)N2CCC(C(=O)NCc3ccco3)CC2)cc1	-7%
CCN(CC)S(=O)(=O)c1ccc2oc(C(=O)N3CCOCC3)c(C)c2c1	?
O=C(CCCn1c(=S)[nH]c2ccccc2c1=O)N1CCN(c2cccc(Cl)c2)CC1	?
c1ccc(-c2n[nH]c3c2CCC3)cc1	-13%
Cc1cc(C)c2c(n1)nn1c(N3CCN(c4ccccn4)CC3)cc(C)nc21	?
CCOC(=O)C(C)N1N=C(/C=C/c2ccc(OC)cc2)CCC1=O (stereo not given)	-18%
COc1cccc(N(C(=O)Cn2nnc(-c3ccc(C)cc3)n2)C(C(=O)NC(C)(C)C)c2c[nH]c3ccccc23)c1 (stereo not given)	-8%
CS(=O)(=O)Nc1cccc(-c2nc(NCCN3CCOCC3)c3ccccc3n2)c1	-7%
Cc1cc2c(cc1C)[n+](C)cn2CC(O)COCc1ccccc1 (stereo not given)	-13%
c1ccc2c(c1)-c1ccccc1C2N1CC2CCC(CC2)C1	-7%
CCOC(=O)C1CCN(C(=O)c2ccc3snnc3c2)CC1	-7%
c1ncn(C23CC4CC(CC(C4)C2)C3)n1	-15%
O=C(CN1CCOCC1)Nc1ccc(C2CCCCC2)cc1	16µM*
c1cncc(-c2nnc3n2C2(CCCCC2)Cc2ccccc2-3)c1	-14%
COc1ccc(OCCOCCN2CCOCC2)cc1	1%
Nc1nonc1C(=O)NCCN=Cc1ccccc1O	-14%
CCOC(=O)C1=C(C)N=c2s/c(=C\c3ccncc3)c(=O)n2C1c1ccc2c(c1)OCO2 (stereo not given)	?
Clc1ccc2[nH]c3c(c2c1)CCc1cn[nH]c1-3	-27%
O=C(c1ccc(COc2c(F)c(F)cc(F)c2F)o1)N1CCN(c2ccccc2)CC1	-26%

Exported field by field: part of the list above
c1cncc(-c2nnc3n2C2(CCCCC2)Cc2ccccc2-3)c1
- HPGD inh: -14%
COc1ccc(OCCOCCN2CCOCC2)cc1
- HPGD inh: 1%

More records.
SMILES	HPGD inh
O=C(N/N=C/c1cccc(O)c1)c1cc(-c2ccc3c(c2)OCO3)n[nH]1	-15%
CN(C)CCCN1C(=O)C(=O)/C(=C(/O)c2ccc3c(c2)OCCO3)C1c1ccco1 (stereo not given)	-7%
N#Cc1ccc(CN2CC3(CCN(C(=O)c4csnn4)CC3)C2)cc1	-7%
N=C(N)c1ccc(OCCCCCOc2ccc(C(=N)N)cc2)cc1	0%&-7%&-7%&2%
COc1ccc(Nc2ncc(C(=O)N3CCC(C(N)=O)CC3)c3ccccc23)cc1	-20%
Cn1cccc1CC(=O)NNC(=S)Nc1ccc(F)cc1	-24%
NC(=O)c1ccccc1NS(=O)(=O)Cc1ccccc1	?
CCCc1nc2ccccc2c(C(=O)O)c1CC	-1%
CS(=O)(=O)Nc1ccccc1C(=O)N1CCOCC1	-1%
O=C(COC(=O)C12CC3CC(CC(O)(C3)C1)C2)NC(=O)NCc1ccco1	0%
Cc1nc(N2CCN(Cc3ccccc3)CC2)nc2c1C(=O)CCC2	-13%
Cc1ccc(OCCN2C(=O)CSC2=O)cc1	-16%
CCN1C(=O)/C(=C/c2c(C)nn(C)c2C)SC1=S	-27%
c1ccc(CCNc2ccccn2)nc1	-11%
Cc1cc(C)c(S(=O)(=O)NCc2cn3c(C)csc3n2)c(C)c1	?
CCOC(=O)c1cc(-c2ccccc2)sc1NC(=O)C(C)N1C(=O)c2ccccc2C1=O (stereo not given)	-6%
COC(=O)C(NC(=O)c1ccco1)(Nc1cc(C)ccn1)C(F)(F)F (stereo not given)	-8%
C=CCOc1ccc(C(=O)N(Cc2ccc(N(C)C)cc2)C2CCS(=O)(=O)C2)cc1 (stereo not given)	-15%
O=C1OCCN1C(=O)[C@H]1[C@H](c2ccccc2)C(c2ccccc2)=NN1c1ccc(Br)cc1	?
Nc1nc(-c2ccccc2Br)cs1	0%
CCN1CCN(C(=O)Cn2c(=O)sc3ccccc32)CC1	1%
COc1ccc(CCN2C(=O)NC(NC(=O)C(C)(C)C)(C(F)(F)F)C2=O)cc1OC (stereo not given)	0%
O=C(NCc1ccco1)c1ccccc1NS(=O)(=O)c1ccc(Br)s1	-17%
Cc1ccc(NS(=O)(=O)c2ccc(NC(=O)CSc3ccc(Cl)cc3)cc2)c(C)c1	-9%
Cc1[nH]nc2c1C(=O)CCC2	1%
C/C(=C\C(=O)C(F)(F)F)Nc1ccc(C)cc1	3%
COC(=O)C1=C(C(=O)OC)C2(OC1c1ccccc1C)C(=O)c1ccccc1C2=O (stereo not given)	?

In the list so far, these contain a COOH group.
SMILES	HPGD inh
Cc1cccc(C(=O)Nc2ccc(CC(=O)O)cc2)c1	2%
CCCc1nc2ccccc2c(C(=O)O)c1CC	-1%

Bioassay records as filed in PubChem.
